High-throughput results deposited in PubChem BioAssay by National Center for Advancing Translational Sciences (NCATS).
Six1-Eya2 blk: qHTS Assay for Inhibitors of the Six1/Eya2 Interaction; AID 651725, 2012; activity change, % (test concentration not listed); AlphaScreen GST-Six1/His-Eya2 binding, biochemical; stronger effect = lower value; control for the full effect not named in the record; 360,000 compounds, 0.56% hits; in the data active = activity change below about -65%; inconclusive = about -30% to -65%; inactive = above about -30%; further: on the % scale 0 is the no-effect control and ±100 the full control effect
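Compounds are tested against tagged Six1 and Eya2 proteins bridged by glutathione donor and nickel acceptor beads; after a one-hour incubation at 37 °C without light, AlphaScreen emission is recorded.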
TRPML1 blocker: qHTS for Inhibitors of the Human Mucolipin Transient Receptor Potential 1 (TRPML1); Mucolipin-1 (Homo sapiens), Q9GZU1; TRPML1-inducible cells, Ca2+ dye fluorescence, FDSS; stronger effect = lower value; inhibition of EC80 agonist-evoked calcium signal; activity change, negative = inhibition, % (concentration not given with the values); 390,000 compounds, 0.02% hits; AID 624415, 2012; in the data active means activity change below about -50%; inconclusive means about -30% to -50%; inactive means above about -30%;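 further: stimulus is agonist 54-4 at its EC80 concentration; on the % scale 0 is the no-effect control and ±100 the full control effect; the text of the record puts the active cut at -80%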
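Calcium fluorescence in TRPML1-DL cells induced overnight with Tet: a 110 s read after compound pin addition, then a 110 s antagonist read after challenge with 54-4 at 4 uM final (EC80).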
TRPML1 ag: qHTS for Agonists of the Human Mucolipin Transient Receptor Potential 1 (TRPML1) | activation, % (no concentration beside the values) | 410,000 compounds, 0.12% hits | Mucolipin-1 (Homo sapiens), Q9GZU1 | TRPML1-expressing cells, Ca2+ dye fluorescence, FDSS; host cell line not named in the record; reference of the full effect not given here; in the data active = activation above about 50%; inconclusive = about 30% to 50%; inactive = below about 30%; further: 0% is about no effect; the text of the record puts the active cut at 80%
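Agonist activity was taken from a 110 s kinetic Ca2+ dye read on the FDSS after pinning compounds onto TRPML1-DL cells. The cells were seeded at 1,500/well with Tet inducer, incubated about 16 h, then dye-loaded at room temperature.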
CtBP-E1A inh: qHTS Assay for Inhibitors of the CtBP/E1A Interaction | CtBP / adenovirus E1A interaction (AlphaScreen) | AlphaScreen GST-E1A/His-CtBP binding, 1536-well; stronger effect = lower value; control for the full effect not named in the record | activity change, % (concentration not given with the values) | 340,000 compounds, 0.49% hits | AID 651724, 2012; in the data active means activity change below about -65%; inconclusive means about -30% to -65%; inactive means above about -30%; further: on the % scale 0 is the no-effect control and ±100 the full control effect
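Steps: dispense buffer (Tris pH 8.0, NaCl 300 mM, TCEP 1 mM, BSA, Tween 20); add 5X protein mix (GST-E1A, His-CtBP, 125 nM each); pin 23 nL compound; 2 h at 37 °C, dark; add 5X beads (50 ug/mL); 1 h; read.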
TRPV1 potentiator: HTS Assay for Compounds that Act as Potentiators of the Vanilloid Receptor 1 | Transient receptor potential cation channel subfamily V member 1 (Homo sapiens), Q8NER1 | TRPV1-expressing cells, Fluo-8 calcium influx, capsaicin EC20 potentiation; host cell line not named in the record; control for the full effect not named in the record | potentiation, % at 8.33 µM | 320,000 compounds, 0.02% hits | AID 540277, 2011; active means potentiation above 80%; inconclusive means 30% to 80%; inactive means below 30%; further: 0% is about no effect
Target sequence (Q8NER1 whole entry, looked up): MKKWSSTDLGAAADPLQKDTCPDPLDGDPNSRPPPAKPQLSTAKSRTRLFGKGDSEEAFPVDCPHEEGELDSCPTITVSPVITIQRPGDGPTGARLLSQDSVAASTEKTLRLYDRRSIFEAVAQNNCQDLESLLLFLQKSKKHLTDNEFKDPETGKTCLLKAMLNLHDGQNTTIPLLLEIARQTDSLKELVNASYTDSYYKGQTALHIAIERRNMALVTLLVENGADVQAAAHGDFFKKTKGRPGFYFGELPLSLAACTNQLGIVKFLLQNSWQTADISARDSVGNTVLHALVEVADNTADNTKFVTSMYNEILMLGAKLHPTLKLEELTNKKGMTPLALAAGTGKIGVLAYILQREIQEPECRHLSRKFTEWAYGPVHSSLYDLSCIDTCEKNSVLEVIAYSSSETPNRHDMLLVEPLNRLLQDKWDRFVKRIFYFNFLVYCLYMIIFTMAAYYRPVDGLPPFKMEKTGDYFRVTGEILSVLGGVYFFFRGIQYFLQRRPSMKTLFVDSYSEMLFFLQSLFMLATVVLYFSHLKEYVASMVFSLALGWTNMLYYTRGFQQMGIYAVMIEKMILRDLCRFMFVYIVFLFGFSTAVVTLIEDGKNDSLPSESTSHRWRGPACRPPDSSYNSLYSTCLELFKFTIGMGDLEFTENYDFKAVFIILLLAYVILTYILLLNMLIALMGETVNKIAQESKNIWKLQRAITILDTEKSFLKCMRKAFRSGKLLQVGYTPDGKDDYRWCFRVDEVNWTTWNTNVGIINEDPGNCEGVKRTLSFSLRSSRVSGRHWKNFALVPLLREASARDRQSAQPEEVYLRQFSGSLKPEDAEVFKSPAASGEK
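Cells expressing TRPV1 were dye-loaded with Fluo-8 and read kinetically: 10 s baseline, 3 min after compound (agonist portion), then 2 min after EC20 capsaicin (allosteric enhancer portion). Calcium-bound dye fluorescence at 480/520 nm.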
D2 PAM: Beta-Arrestin HTS for Positive Allosteric Modulators of the Human D2 Dopamine Receptor: Potentiators; D(2) dopamine receptor (Homo sapiens), P14416; DiscoveRx D2 beta-arrestin cells, luminescence, 90 min; 100% = 57 uM dopamine signal; potentiation, % (test concentration not listed); 360,000 compounds, 0.23% hits; active = potentiation of 50% or more; inconclusive = 30% to 50%; inactive = 30% or less;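 further: compound concentration not given in the record; tested on top of an EC20 dose of dopamine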
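PathHunter D2 cells, attached overnight at 37 deg C, received compound in DMSO plus dopamine at EC20 (50 nM final) for 90 min at 37 deg C. Beta-arrestin recruitment was read as luminescence after 1 h with detection reagent at ambient temperature.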
Numbers without * were called inactive; ? = inconclusive; / = no result given; & = joins results of further samples.

no.	canonical_smiles	Six1-Eya2 blk	TRPML1 blocker	TRPML1 ag
1	COCCNC(=S)N(C)[C@H]1C[C@H]2c3cc(-c4ccccc4)ccc3CCN2C(=O)[C@H]1[C@H](C)O	0	-7	0.1
2	CN(C)C1CN(Cc2cn(Cc3ccccc3)nn2)S(=O)(=O)C1 (stereo not drawn)	6	/	-0.8
3	Cc1cc([N+](=O)[O-])nn1CCC(=O)Nc1nccs1	-11	13	6.7
4	CCC(=O)Nc1cc(OC)cc(OC)c1	-2	-2	-0.4
5	CCOC(=O)c1ccc(S(=O)(=O)N2CCN(CC(O)COc3cccc(C(C)=O)c3)CC2)cc1 (stereo not drawn)	-5	-11	1.1
6	Cc1cc(C)nc(SCC(=O)c2ccc(O)c(O)c2)n1	-5	4	1.0
7	COC(=O)c1cn(-c2ccccc2)c(C)c1C(=O)OC	5	-3	0.0
8	O=C(O)CCCn1cc(NC(=O)COc2ccccc2[N+](=O)[O-])cn1	10	13	0.4

no.	CtBP-E1A inh	TRPV1 potentiator	D2 PAM
1	-17	/	-8
2	-21	/	/
3	/	21	-7
4	-4	-6	-4
5	-16	8	-9
6	-17	9	1
7	1	-3	-21
8	-11	8	1

Next part (two carried over from the part before).
no.	canonical_smiles	Six1-Eya2 blk	TRPML1 blocker	TRPML1 ag
7	COC(=O)c1cn(-c2ccccc2)c(C)c1C(=O)OC	5	-3	0.0
8	O=C(O)CCCn1cc(NC(=O)COc2ccccc2[N+](=O)[O-])cn1	10	13	0.4
9	CCc1cccc(NS(=O)(=O)c2c(C)nc3sc(CC)nn3c2=O)c1	6	3&3	-1.0&1.3
10	Cc1nc(N2CCN(Cc3ccccc3)CC2)[nH]c(=O)c1C	7	4	-0.8
11	COc1ccc(N=C2SC(C(N)=O)CC(=O)N2CCc2ccc(OC)c(OC)c2)cc1 (stereo not drawn)	-3	-10	-0.1
12	COc1cc([C@H]2OC[C@H]3[C@@H]2CO[C@@H]3c2ccc(O[C@H]3O[C@H](CO)[C@@H](O)[C@H](O)[C@H]3O)c(OC)c2)ccc1O[C@@H]1O[C@H](CO)[C@@H](O)[C@H](O)[C@H]1O	-1	0	0.6
13	COc1ccc(S(=O)(=O)c2c(N)n(Cc3ccco3)c3nc4ccccc4nc23)cc1	?	-5	17
14	CC(C)Oc1cccc(C(=O)NC2=NCCS2)c1	2	-1	-1.2
15	COc1ccc(-c2[nH]ncc2CN(C)C(C)c2cccs2)c(F)c1 (stereo not drawn)	-8	18	0.3
16	Nc1nc(-c2ccc(C(=O)O)cc2)cs1	-4	-5	-0.4

no.	CtBP-E1A inh	TRPV1 potentiator	D2 PAM
7	1	-3	-21
8	-11	8	1
9	-1	?	-2
10	6	-7	-6
11	-1	4	-2
12	-19	/	-6
13	-18	-7	-14
14	9	-15	-7
15	-2	-5	-4
16	/	11	-4

The list goes on.
no.	canonical_smiles	Six1-Eya2 blk	TRPML1 blocker	TRPML1 ag
17	COc1cc(/C=C/C(=O)OCC(=O)Nc2cc(C)on2)ccc1OCC#N	6	7	0.4
18	COc1cccc(OC)c1C(=O)N1CC(C)OC(C)C1 (stereo not drawn)	-1	-10	2.5
19	Cn1c(=O)n(Cc2ccc(Cl)cc2)c(=O)c2c1nc1n2CCN1Cc1ccco1	?	10	1.0
20	COc1c(S(=O)(=O)N2CCN(C)CC2)ccc(Cl)c1Cl	-10	1	0.3
21	Cc1cc(C)cc(-n2c(C)cc(/C=C3\C(=N)N4N=C(CC(C)C)SC4=NC3=O)c2C)c1	2	4	13
22	CCNC(=S)NCc1ccc(F)cc1	3	-7	-0.6
23	CC(c1cccs1)N(C)Cc1nc(CCc2ccccc2)no1 (stereo not drawn)	20	-11	2.8
24	COCc1c(Br)c(C)nc(OCC(=O)N/N=C/c2ccc(C)o2)c1C#N	-7	3	-0.2

no.	CtBP-E1A inh	TRPV1 potentiator	D2 PAM
17	8	-13	-2
18	6	3	0
19	?	-7	6
20	-12	-7	-12
21	6	-2	3
22	-2	0	-5
23	52	1	-4
24	-3	6	0

Exported as labelled records: entries from further up
22) CCNC(=S)NCc1ccc(F)cc1
  Six1-Eya2 blk: 3 | TRPML1 blocker: -7 | TRPML1 ag: -0.6 | CtBP-E1A inh: -2 | TRPV1 potentiator: 0 | D2 PAM: -5
23) CC(c1cccs1)N(C)Cc1nc(CCc2ccccc2)no1 (stereo not drawn)
  Six1-Eya2 blk: 20 | TRPML1 blocker: -11 | TRPML1 ag: 2.8 | CtBP-E1A inh: 52 | TRPV1 potentiator: 1 | D2 PAM: -4

New compounds follow:
no.	canonical_smiles	Six1-Eya2 blk	TRPML1 blocker	TRPML1 ag
25	O=C(CN1CCOCC1)Nc1nc(-c2ccc(Cl)cc2)cs1	4	-16	-0.9
26	O=C(Nc1cc(Oc2ccc(Cl)cc2)cc([N+](=O)[O-])c1)c1ccco1	-11	22	2.9
27	C[C@H](CO)N1C[C@H](C)[C@@H](CN(C)S(=O)(=O)c2cn(C)cn2)Oc2c(NS(=O)(=O)c3cccs3)cccc2C1=O	0	-19	-0.2
28	Cc1ccc(C(=O)NC(=S)NNC(=O)CCN2CCOCC2)cc1	-2	-14	0.7
29	CCCCn1c(-c2csc3c2CCCC3)n[nH]c1=S	-6	0	3.1
30	CC(Sc1nnc(-c2ccco2)n1C)C(=O)N1C(C)CCCC1C (stereo not drawn)	2	-2	-0.6
31	CSC[C@H]1CN(c2ccccc2)C(=O)[C@@H]1CC(=O)Nc1ccccc1	1	0	-0.5
32	Cc1ccsc1/C=N/NC(=O)c1cc(-c2ccncc2)nc2ccccc12	-25	-9	0.5

no.	CtBP-E1A inh	TRPV1 potentiator	D2 PAM
25	-2	9	2
26	-8	13	-6
27	-24	/	-3
28	11	0	-12
29	0	-9	-5
30	-5	-1	-13
31	3	/	-4
32	-10	-1	-12

The results go on.
no.	canonical_smiles	Six1-Eya2 blk	TRPML1 blocker	TRPML1 ag
33	Cc1ccc(S(=O)(=O)c2cc(N3CCOCC3)nc(-c3ccccc3)n2)cc1	-2	44	3.4
34	O=C(NC1CC1)C1CCN(C2CCN(C(=O)/C=C/c3ccc(F)cc3)CC2)CC1	-3	-8	0.3
35	O=C(CCn1nnc(-c2cccs2)n1)N1CCc2ccccc2C1	8	8	-0.4
36	CCSc1nnc(-c2ccc(OC)cc2)o1	5	8	0.8
37	CCOC(=O)CSc1nc(N)c(C(=O)Nc2ccc(N(C)C)cc2)s1	-27	0	-0.6
38	CC(Oc1ccc2c(c1)c1ccnc3c4ccccc4c(=O)n2c13)C(=O)NCCN1CCOCC1 (stereo not drawn)	?	/	/
39	COc1ccc(N(C(C)=O)S(=O)(=O)c2cccs2)cc1	-2	7	-0.9
40	CCN(C(=O)C1CCCO1)c1ccccc1 (stereo not drawn)	2	-13	0.0

no.	CtBP-E1A inh	TRPV1 potentiator	D2 PAM
33	4	4	5
34	7	1	-2
35	-10	-20	-6
36	5	-19	-5
37	-24	-10	-15
38	?	20	2
39	-4	26	-18
40	3	-6	-3

The list goes on:
no.	canonical_smiles	Six1-Eya2 blk	TRPML1 blocker	TRPML1 ag
41	C=CCn1c(-c2ccccc2)cc(SC)c(C#N)c1=O	4	40	3.3
42	COC(=O)c1ccc(NC(=O)CO/N=C2\CCCc3nonc32)cc1	15	-8	0.1
43	Fc1ccc(CNCc2ccccc2Cl)cc1	15	-8	-0.2
44	O=C(c1cnn2c(C(F)(F)F)cc(-c3cccs3)nc12)N1CCOCC1	-9	-9	-0.1
45	CC(=O)Nc1ccc(NC(=O)CSCCc2ccccn2)cc1	-1	-4	4.2
46	CCC(CC)=NNC(=O)c1ccccc1OCc1ccc(F)cc1	6	-15	-0.5
47	Cc1nn(C)cc1S(=O)(=O)Nc1ncccn1	4	46	0.8
48	O=C1c2ccccc2-c2ccc(C(=O)N3CCOCC3)cc21	2	25	0.8

no.	CtBP-E1A inh	TRPV1 potentiator	D2 PAM
41	17	-6	-1
42	-1	10	-3
43	1	-5	-26
44	5	8	-1
45	-2	/	-12
46	4	-7	13
47	-3	3	-9
48	-1	-7	-5

New compounds follow:
no.	canonical_smiles	Six1-Eya2 blk	TRPML1 blocker	TRPML1 ag
49	CCSc1nnc(SCC(=O)NNC(=O)c2ccccc2F)s1	0	-2	0.1
50	O=C1COc2ccc(S(=O)(=O)Nc3ccc(F)cc3)cc2N1	5	-13	0.3
51	COc1ccc(CCN(C)C(=O)c2ccc(C)c(S(=O)(=O)N3CCCCC3)c2)cc1OC	-1	-2	0.3
52	CC(=O)Oc1cccc(C(=O)Nc2ccccc2NC(=O)c2cccc(OC(C)=O)c2)c1	-2	-27	1.9
53	OCCN1CCN(CC(O)COc2ccc3c(c2)OCO3)CC1 (stereo not drawn)	-3	-8	0.0
54	CCOC(=O)C1CCC(=O)N1Cc1c[nH]c2ccccc12 (stereo not drawn)	3	/	-0.3
55	CN1CCNC(=O)C1CC(=O)N1CC=C(c2ccc(F)cc2)CC1 (stereo not drawn)	-1	10	-0.8
56	CCCCn1c(SCC(=O)c2ccc3c(c2)NC(=O)CO3)nc2cc(S(N)(=O)=O)ccc21	-7	7	0.5

no.	CtBP-E1A inh	TRPV1 potentiator	D2 PAM
49	7	?	-3
50	-12	-9	-7
51	3	0	0
52	-5	5	10
53	-1	-10	-5
54	2	/	-5
55	0	5	-1
56	/	-9	-2

(cont.)
no.	canonical_smiles	Six1-Eya2 blk	TRPML1 blocker	TRPML1 ag
57	Nn1c(Cc2ccccc2F)nnc1SCCOc1ccc(Cl)cc1	3	-7	1.7
58	COc1ccc(Br)cc1CN1CCN(c2ncccn2)CC1	-1	12	-0.6
59	O=C(Oc1ccc(Cl)c(Cl)c1)C1=CC=CN2CCS(=O)(=O)N=C12	-7	-7	0.2
60	O=C(Nc1cccc(F)c1)c1ccc(-c2cccnc2)c2ccoc12	3	/	0.2
61	COc1c(S(=O)(=O)n2nc(C)cc2C)ccc(Cl)c1Cl	3	-4	0.4
62	COc1ccccc1NC(=O)CSc1nc2ccccc2n1C(C)=O	-2	16	1.0

no.	CtBP-E1A inh	TRPV1 potentiator	D2 PAM
57	-12	-5	1
58	7	/	11
59	-11	/	-4
60	7	/	-7
61	6	5	-1
62	-6	3	-13
